Screening data deposited in PubChem BioAssay by National Center for Advancing Translational Sciences (NCATS).
TRPML1 ag: qHTS for Agonists of the Human Mucolipin Transient Receptor Potential 1 (TRPML1) | Mucolipin-1 (Homo sapiens), Q9GZU1 | TRPML1-expressing cells, Ca2+ dye fluorescence, FDSS; host cell line not named in the record; reference of the full effect not given here | activation, % (no concentration beside the values) | actives 0.12% (n = 410,000) | AID 624414, 2012; in the data active = activation above about 50%; inconclusive = about 30% to 50%; inactive = below about 30%; also: 0% is about no effect; the text of the record puts the active cut at 80%
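In this qHTS format, compounds were pin-transferred onto Ca8-dye-loaded TRPML1-DL cells induced with Tet overnight, and intracellular Ca2+ fluorescence was recorded kinetically for 110 s after a 10 s baseline. A subsequent 4uM final 54-4 (EC80) addition followed by a second 110 s read served as the antagonist phase.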
Sfp PPTase inh: qHTS Assay for Inhibitors of Bacillus subtilis Sfp phosphopantetheinyl transferase (PPTase) | 4'-phosphopantetheinyl transferase ffp (Bacillus subtilis), Q9F4F7 | Biochemical Sfp PPTase activity, qHTS | Potency, µM, inactives show max response, negative = inhibition, usual class: inhibitors | actives 3.5% (n = 310,000); active = well fitted inhibition curve with a large enough effect; inconclusive = small, poorly fitted or top-dose-only effect, or another doubt; inactive = no such curve, though single readings can be large or run the other way;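 also: the enzyme is Sfp with the accession as filed and its product quenches rhodamine fluorescence; potency is read from the fitted curve at half-maximal effect; 0% = enzyme reaction without inhibitor and -100% = no enzyme wells; top concentration of the series not given in the record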
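Sfp 15 nM + cpd, 15 min RT; start w/ rhodamine-CoA 5 uM, BHQ-2-YbbR 12.5 uM (final); 50 mM Hepes pH 7.6, 10 mM MgCl2, 0.01% NP-40, 0.01% BSA; read 525/598 nm at 0 and 30 min.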
Menin-MLL FL inh: qHTS Assay for Inhibitors Targeting the Menin-MLL Interaction in MLL Related Leukemias: Competition With Fluorescein Labeled MLL-derived Peptide | 290,000 tested, under 10 active | FP activity change, % at 61.4 µM | Fluorescence polarization, fluorescein-MLL peptide displacement from menin | AID 1766, 2009; inconclusive = falling polarisation curve, or a change in total fluorescence; inactive = total fluorescence flat and polarisation flat or rising; no compound was filed as active; the % refers to the polarisation; negative = inhibition;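 also: % of control where 0% means no effect; inhibitors lower the polarisation; unlabelled MLL peptide was the positive control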
TRPV1 potentiator: HTS Assay for Compounds that Act as Potentiators of the Vanilloid Receptor 1; Transient receptor potential cation channel subfamily V member 1 (Homo sapiens), Q8NER1; TRPV1-expressing cells, Fluo-8 calcium influx, capsaicin EC20 potentiation; host cell line not named in the record; control for the full effect not named in the record; potentiation, % at 8.33 µM; actives 0.02% (n = 320,000); AID 540277, 2011; active means potentiation above 80%; inconclusive means 30% to 80%; inactive means below 30%; also: 0% is about no effect
Target sequence (Q8NER1 whole entry, looked up): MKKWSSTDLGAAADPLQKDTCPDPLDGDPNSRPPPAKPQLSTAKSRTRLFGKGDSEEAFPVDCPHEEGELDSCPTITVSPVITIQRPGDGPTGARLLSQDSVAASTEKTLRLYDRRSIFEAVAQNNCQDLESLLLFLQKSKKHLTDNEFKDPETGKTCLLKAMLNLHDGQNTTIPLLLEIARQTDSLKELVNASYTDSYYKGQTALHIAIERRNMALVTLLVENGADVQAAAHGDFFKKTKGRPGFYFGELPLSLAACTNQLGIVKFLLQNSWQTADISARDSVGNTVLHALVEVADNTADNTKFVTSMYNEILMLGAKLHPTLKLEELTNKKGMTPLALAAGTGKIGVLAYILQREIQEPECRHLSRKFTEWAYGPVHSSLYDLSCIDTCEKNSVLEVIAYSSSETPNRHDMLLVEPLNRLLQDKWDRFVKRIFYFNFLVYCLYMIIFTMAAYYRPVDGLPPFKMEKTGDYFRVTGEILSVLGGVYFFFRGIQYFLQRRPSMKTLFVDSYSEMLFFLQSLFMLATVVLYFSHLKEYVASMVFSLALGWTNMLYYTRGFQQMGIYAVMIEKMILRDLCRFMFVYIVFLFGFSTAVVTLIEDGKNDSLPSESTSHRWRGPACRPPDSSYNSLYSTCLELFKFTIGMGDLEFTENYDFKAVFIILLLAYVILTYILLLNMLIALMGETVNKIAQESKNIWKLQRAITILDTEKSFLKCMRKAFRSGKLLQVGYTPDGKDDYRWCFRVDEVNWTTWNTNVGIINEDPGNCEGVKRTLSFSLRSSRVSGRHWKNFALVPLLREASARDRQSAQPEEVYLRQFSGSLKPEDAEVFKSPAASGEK
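TRPV1-expressing cells were cultured overnight at 35.5C and loaded with Fluo-8 calcium dye for 40 to 90 min at room temperature. After a 10 s baseline, compound was added and calcium influx was read kinetically for 3 min (ex 480/em 520 nm).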
PINK1 expr mod: A Quantitative High throughput Screen to Identify Chemical Modulators of PINK1 Expression; PINK1 immunofluorescence, high-content cytometry, 24 h; Potency, µM (doses to about 76.6 µM), inactives show top-dose activation (PINK1 increase), most hits filed as activators; actives 0.2% (n = 410,000); active = well fitted activation curve with a large enough effect; inconclusive = small, poorly fitted or top-dose-only effect; inactive = flat fitted curve, though single readings scatter; cell line not stated here;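 also: potency is read from the fitted curve at half-maximal effect; % of control where 0% means no effect; nearly all actives have a fitted effect of over 65% in size; a mitochondrial uncoupler was the plate control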
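PINK1 protein level read as immunofluorescence by microplate cytometer in a fixed, stained stable cell line after 24 h exposure to five compound concentrations, with CCCP as control.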
ClpP mod: qHTS Assay for Activators of ClpP; ATP-dependent Clp protease proteolytic subunit (Bacillus subtilis (strain 168)), P80244; purified B. subtilis ClpP, FRET peptide cleavage, 20 min; Potency, µM (top dose mostly 57.5 µM), for the others: at the top dose activity change, negative = active; actives 1.9% (n = 340,000); active = well fitted falling curve with a large enough effect; inconclusive = small, poorly fitted or top-dose-only effect; inactive = no such curve, though single readings can be large or run the other way; also: potency is read from the fitted curve at half-maximal effect; the source files actives as falling curves though it sought activators and does not explain the sign; nearly all actives have a fitted effect of over 65% in size; many hits overshoot -100%
Target sequence (P80244 whole entry, looked up): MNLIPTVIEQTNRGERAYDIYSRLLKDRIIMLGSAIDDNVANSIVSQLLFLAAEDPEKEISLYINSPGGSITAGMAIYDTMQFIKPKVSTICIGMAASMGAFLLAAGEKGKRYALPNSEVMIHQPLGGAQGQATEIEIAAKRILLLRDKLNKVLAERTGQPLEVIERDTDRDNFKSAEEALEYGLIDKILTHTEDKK
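Buffer: 100 mM Tris/HCl pH8, 100 mM KCl, 0.05% low protease BSA, 2.5% glycerol, 0.01% Tween-20. ClpP 10 microg/mL final; 20 min RT; delta FRET normalized to ADEP and DMSO controls.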
TRPML1 blocker: qHTS for Inhibitors of the Human Mucolipin Transient Receptor Potential 1 (TRPML1); Mucolipin-1 (Homo sapiens), Q9GZU1; TRPML1-inducible cells, Ca2+ dye fluorescence, FDSS; hits give low values; inhibition of EC80 agonist-evoked calcium signal; activity change, negative = inhibition, % (no concentration beside the values); actives 0.02% (n = 390,000); AID 624415, 2012; in the data active means activity change below about -50%; inconclusive means about -30% to -50%; inactive means above about -30%;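 also: stimulus is agonist 54-4 at its EC80 concentration; % is scaled to controls: 0 for no effect and ±100 for the full control effect; compound concentration not given in the record; the text of the record puts the active cut at -80%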
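Tet-induced TRPML1-DL cells loaded with Ca8 no-wash calcium dye were read kinetically on FDSS. Compound addition was followed by EC80 agonist 54-4 (4 uM final); inhibition was read over 110 s.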
Starred values were filed as active, the others as inactive; [ ] = another dose, or the depositor's remark. An unsorted share of the library. Share with any hit: about 4.4%.

Results for Cc1ccc(SCCC(=O)NCC2CCCO2)cc1 (configuration not stated) ?
TRPML1 ag: -0.7; Sfp PPTase inh: 11%; Menin-MLL FL inh: 1.9; TRPV1 potentiator: 1; PINK1 expr mod: 0.4%; ClpP mod: -0.6%; TRPML1 blocker: 7

What do the screens show for `CN1C(=O)N(C)C2C1N(CN1CCCCC1)C(=O)N2CN1CCCCC1` (configuration not stated)?
TRPML1 ag: 3.0; Sfp PPTase inh: 18%; Menin-MLL FL inh: 2.0; TRPV1 potentiator: inconclusive; PINK1 expr mod: 2.7%; ClpP mod: 1.4%; TRPML1 blocker: 9

How did CCc1c(C)n([O-])c2c([n+]1=O)CCCCC2 do in these assays?
TRPML1 ag: 1.0; Sfp PPTase inh: -4%; Menin-MLL FL inh: 3.5; TRPV1 potentiator: 12; PINK1 expr mod: 0.4%; ClpP mod: -0.7%; TRPML1 blocker: 6

Results for COc1ccc(-n2nc([N+](=O)[O-])c(=NCCc3ccc(Cl)cc3)n2O)cc1 ?
TRPML1 ag: -0.3; Sfp PPTase inh: 10%; Menin-MLL FL inh: -2.6; TRPV1 potentiator: -3; PINK1 expr mod: 19%[38.3 µM]; ClpP mod: 1.9%; TRPML1 blocker: -3

Results for COc1ccccc1N1CCN(C(=O)c2oc3ccc(F)cc3c2C)CC1 ?
TRPML1 ag: -0.7; Sfp PPTase inh: -11%; Menin-MLL FL inh: 1.1; TRPV1 potentiator: -1; PINK1 expr mod: 1.2%; ClpP mod: -7.2%; TRPML1 blocker: 11

Results for CCOC(=O)NC(=O)CSc1nc2ccc([N+](=O)[O-])cc2[nH]1 ?
TRPML1 ag: 0.7; Sfp PPTase inh: 18%; Menin-MLL FL inh: -2.4; TRPV1 potentiator: 8; PINK1 expr mod: 0.4%; TRPML1 blocker: -10

What do the screens show for `CCOc1cccc(C(=O)Nc2ccc(S(=O)(=O)Nc3cc(C)on3)cc2)c1`?
TRPML1 ag: -1.6; Sfp PPTase inh: 9%; Menin-MLL FL inh: -0.4; TRPV1 potentiator: 3; PINK1 expr mod: 1.1%; ClpP mod: -1.3%; TRPML1 blocker: 20

Results for CCOC(=O)N1CCc2c(sc3c2c(=O)n(-c2ccc(F)cc2)c(=O)n3CC(=O)c2ccc(Cl)cc2)C1 ?
TRPML1 ag: 2.1; PINK1 expr mod: 0.5%; ClpP mod: -6.0%; TRPML1 blocker: 22

Results for COc1cccc(-c2csc(NC3OC(=O)c4c3ccc(OC)c4OC)n2)c1 (configuration not stated) ?
TRPML1 ag: -0.5; Sfp PPTase inh: -10%; Menin-MLL FL inh: 2.6; TRPV1 potentiator: 6; PINK1 expr mod: 5.5%; TRPML1 blocker: -8

How did COc1ccc(NC(=O)C(c2ccc(Cl)cc2)C(C)C)cn1 (configuration not stated) do in these assays?
TRPML1 ag: 5.0; Sfp PPTase inh: 2%; Menin-MLL FL inh: inconclusive; TRPV1 potentiator: -1; PINK1 expr mod: 5.8%; ClpP mod: 0.4%; TRPML1 blocker: 9

How did Cc1ccc(CNC(=O)C2CCC(CNS(=O)(=O)c3cccs3)CC2)cc1 (configuration not stated) do in these assays?
TRPML1 ag: -0.7; Sfp PPTase inh: 4%; Menin-MLL FL inh: 2.0; TRPV1 potentiator: 15; PINK1 expr mod: 5.3%; TRPML1 blocker: 0

What do the screens show for `CCCS(=O)(=O)NC(=O)C1(C)CCCN(C(=O)c2oc3ccccc3c2C)C1` (configuration not stated)?
TRPML1 ag: -0.9; PINK1 expr mod: 3.6%; ClpP mod: -4.6%

Results for O=C(CCc1ccc(Oc2cc([N+](=O)[O-])cc([N+](=O)[O-])c2)cc1)Nc1cccc(Cl)c1 ?
TRPML1 ag: -0.1; Sfp PPTase inh: 2%; Menin-MLL FL inh: 3.5; TRPV1 potentiator: 4; PINK1 expr mod: 0.1%; ClpP mod: -1.2%; TRPML1 blocker: 7

Results for COC(=O)c1c(C)[nH]c(C(=O)C(C)Sc2nnc(-c3cc(OC)c(OC)c(OC)c3)o2)c1C (configuration not stated) ?
TRPML1 ag: -0.2; Sfp PPTase inh: 11%; Menin-MLL FL inh: 3.2; TRPV1 potentiator: -15; PINK1 expr mod: -0.4%; ClpP mod: 0.0%; TRPML1 blocker: -15

Results for Cc1cccc(C(=O)OCC(=O)Nc2sccc2C(N)=O)c1C ?
TRPML1 ag: -0.5; PINK1 expr mod: 2.7%; ClpP mod: -0.1%; TRPML1 blocker: -3

Results for O=C1C(C2=NC(c3ccccn3)C3C(=O)N(c4ccccc4)C(=O)C23)=C(O)c2ccccc21 (configuration not stated) ?
TRPML1 ag: 0.5; Sfp PPTase inh: 1%; Menin-MLL FL inh: 2.5; TRPV1 potentiator: 8; PINK1 expr mod: 4.7%; ClpP mod: -27%; TRPML1 blocker: 20

What do the screens show for `CC(C)C[C@H]1CNC(=S)N1C[C@H]1CCCN1C[C@H](CC(C)C)N1C[C@H](Cc2ccccc2)N(CCc2ccccc2)C1=S`?
TRPML1 ag: -0.8; PINK1 expr mod: 0.5%; ClpP mod: 1.1%; TRPML1 blocker: -17

How did Cc1ccc(-n2c(=O)c3c(cnn3C)n(Cc3ccc(Cl)cc3)c2=O)cc1 do in these assays?
TRPML1 ag: 2.0; PINK1 expr mod: 1.5%; ClpP mod: -3.6%; TRPML1 blocker: 27

Results for CCN(c1ccccc1)C(CNS(=O)(=O)c1ccccc1)c1ccccc1 (configuration not stated) ?
TRPML1 ag: 4.2; PINK1 expr mod: inconclusive; ClpP mod: -11%; TRPML1 blocker: 42

How did Cc1n[nH]c(=O)nc1NCC1CCCO1 (configuration not stated) do in these assays?
TRPML1 ag: 0.3; Sfp PPTase inh: inconclusive; Menin-MLL FL inh: 1.8; TRPV1 potentiator: inconclusive; PINK1 expr mod: 0.0%; ClpP mod: 4.0%; TRPML1 blocker: -5

Results for COCCN(C(=O)CSc1ccc2c(c1)OCCO2)c1c(N)n(CC(C)C)c(=O)[nH]c1=O ?
TRPML1 ag: -0.4; PINK1 expr mod: 0.3%; TRPML1 blocker: 5

Results for CCOC(=O)C1(C)C=C(Nc2cccc(C(=O)O)c2)C(=O)N1c1cccc(C(=O)O)c1 (configuration not stated) ?
TRPML1 ag: -1.1; PINK1 expr mod: 2.7%; ClpP mod: -6.0%; TRPML1 blocker: -15

How did CC1=NN(c2nc(-c3ccc(C)cc3)cs2)C(=O)C1N=Nc1ccc(C(N)=O)cc1 (configuration not stated) do in these assays?
TRPML1 ag: 0.9; Sfp PPTase inh: 8%; Menin-MLL FL inh: 2.4; TRPV1 potentiator: -3; PINK1 expr mod: -2.9%; TRPML1 blocker: -1

How did CC(C)Nc1nc(-c2ccncc2)nc(-c2ccc(Cl)cc2)c1C#N do in these assays?
TRPML1 ag: 1.5; Sfp PPTase inh: -7%; Menin-MLL FL inh: -1.1; TRPV1 potentiator: 10; PINK1 expr mod: 7.3%; TRPML1 blocker: 2

Results for Cc1noc(C)c1C(=O)N1CCN(c2ccc(OCc3ccccc3)cc2)CC1 ?
TRPML1 ag: -0.4; Sfp PPTase inh: -2%; Menin-MLL FL inh: 0.7; TRPV1 potentiator: 7; PINK1 expr mod: 0.0%; ClpP mod: -2.7%; TRPML1 blocker: 25

What do the screens show for `CN(c1ccccc1)S(=O)(=O)c1cccc(NC(=O)CCNC(=O)c2ccc(Cl)cc2)c1`?
TRPML1 ag: 2.7; TRPV1 potentiator: 0; PINK1 expr mod: inconclusive; ClpP mod: 0.7%; TRPML1 blocker: 9

What do the screens show for `CC#CC[N+](C)(C)CC(=O)c1ccccc1`?
Sfp PPTase inh: -2%; Menin-MLL FL inh: 3.6; TRPV1 potentiator: 2; PINK1 expr mod: 1.0%; ClpP mod: -1.2%

What do the screens show for `COc1ccc(N2CCC(CNC(=O)Nc3cccc(OC)c3)C2)cc1` (configuration not stated)?
TRPML1 ag: 0.3; Sfp PPTase inh: -1%; Menin-MLL FL inh: 1.5; TRPV1 potentiator: -11; PINK1 expr mod: -1.5%[38.3 µM]; ClpP mod: -18%; TRPML1 blocker: -10

What do the screens show for `COc1cc(CN(C)C(=O)C2CCN(S(=O)(=O)c3cccs3)CC2)ccc1OC(F)F`?
TRPML1 ag: 1.1; PINK1 expr mod: 0.4%; ClpP mod: -1.0%; TRPML1 blocker: -1

How did O=C1CCCN1CC(=O)N1CCCC(Nc2cccc(F)c2)C1 (configuration not stated) do in these assays?
TRPML1 ag: 0.2; Sfp PPTase inh: 8%; Menin-MLL FL inh: -2.8; TRPV1 potentiator: 10; PINK1 expr mod: 2.2%; ClpP mod: 1.3%; TRPML1 blocker: 5

What do the screens show for `CCOC(=O)c1c(-c2ccccc2)csc1NC(=O)c1cc(-c2ccc(Cl)cc2)on1`?
TRPML1 ag: -0.6; PINK1 expr mod: 2.4%; ClpP mod: -4.1%; TRPML1 blocker: -11

What do the screens show for `Cc1cc(N2CCC(C)CC2)n2ncc(-c3ccccc3)c2n1`?
TRPML1 ag: 1.0; Sfp PPTase inh: -10%; Menin-MLL FL inh: -1.5; TRPV1 potentiator: 9; PINK1 expr mod: 5.8%; ClpP mod: 32µM*; TRPML1 blocker: 55

How did Cc1cc2nn(-c3ccccc3)nc2cc1NC(=O)c1cccc2c(Cl)cccc12 do in these assays?
TRPML1 ag: -0.5; PINK1 expr mod: 1.6%; ClpP mod: -16%; TRPML1 blocker: 13
